UCH37 DUB inh: inhibitors of human deubiquitinating enzyme UCH37; purified proteasome/UCH37, Ub-AMC cleavage fluorescence; Q9Y5K5; AID 588478; inhibition, % (concentration not given with the values); 0.33% of 330,000 active;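 active means mean of two replicates above 20%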;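 further: 0% = compound-free wells with enzyme and 100% = wells lacking proteasome; stock transfer was 100 nL into about 20 µL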
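system = Proteasome-associated human UCH37 deubiquitinase | amount = 0.15 nM proteasome as dispensed | medium = pH 7.4 Tris-HCl (50 mM) with ovalbumin, ATP-MgCl2, DTT | incubation = 30 min preincubation with enzyme, 25 min cleavage at room temperature | detection = AMC fluorescence 355/460 nm | read-out basis = percent inhibition | controls = no-proteasome and no-compound wells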
ALR inh: human ALR oxidase inhibition via reduced H2O2; 3.8% of 290,000 active; P55789; inhibition, % (concentration not given with the values); purified ALR, DTT oxidation, H2O2 HRP-luminol luminescence;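 active means mean and each replicate at 75% or more; inconclusive means only one of the two met; inactive means neither met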;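 further: stock transfer was 7.5 nL into about 7.5 µL; 0% = neutral wells and 100% = wells with inactivated enzyme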
Target sequence (P55789 whole entry, looked up): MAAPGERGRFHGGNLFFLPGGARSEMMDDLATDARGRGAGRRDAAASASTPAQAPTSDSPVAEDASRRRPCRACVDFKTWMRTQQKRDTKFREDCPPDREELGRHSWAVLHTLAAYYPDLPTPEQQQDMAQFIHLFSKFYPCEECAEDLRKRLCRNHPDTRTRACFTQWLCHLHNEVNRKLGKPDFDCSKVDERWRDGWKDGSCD
HNF4A DNA FP: change in binding of human HNF4 alpha to DNA | HNF4a-FITC DNA binding, fluorescence polarization, 1 h | activity change, % at 10 µM | 0.3% of 360,000 active; in the data active means activity change above about 30%, passing the limit was not always enough;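 further: controls were the assay level and a saturating level of protein; the project sought stronger binding though the title names inhibitors; some compounds called inactive have numbers as strong as hits; positive values seem to mean higher polarization but the record does not say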
Target sequence (P41235 whole entry, looked up): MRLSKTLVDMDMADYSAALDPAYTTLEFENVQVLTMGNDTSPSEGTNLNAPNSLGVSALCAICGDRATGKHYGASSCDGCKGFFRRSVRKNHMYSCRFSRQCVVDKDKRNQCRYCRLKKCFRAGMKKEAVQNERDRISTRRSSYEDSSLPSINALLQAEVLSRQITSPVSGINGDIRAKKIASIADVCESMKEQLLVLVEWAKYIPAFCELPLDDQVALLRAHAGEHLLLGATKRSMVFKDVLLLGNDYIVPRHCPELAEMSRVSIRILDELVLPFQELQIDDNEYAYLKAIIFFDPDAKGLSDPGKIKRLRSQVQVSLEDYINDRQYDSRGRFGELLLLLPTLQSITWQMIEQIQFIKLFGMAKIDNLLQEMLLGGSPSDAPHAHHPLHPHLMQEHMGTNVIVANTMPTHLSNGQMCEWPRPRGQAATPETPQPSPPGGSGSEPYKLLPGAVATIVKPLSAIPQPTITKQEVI
FGF22 binding: shifts melting point of recombinant human FGF22 | 1.5% of 340,000 active | calls only at 9.99 µM | recombinant FGF22 thermal shift, SYPRO orange fluorescence; percent of sucrose octasulfate shift, DMSO zero | AID 651658;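 active means melting point raised past a set limit in the mean and every replicate; inconclusive means no clear call; three in four hits are not shown here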
Target sequence (Q9HCT0 whole entry, looked up): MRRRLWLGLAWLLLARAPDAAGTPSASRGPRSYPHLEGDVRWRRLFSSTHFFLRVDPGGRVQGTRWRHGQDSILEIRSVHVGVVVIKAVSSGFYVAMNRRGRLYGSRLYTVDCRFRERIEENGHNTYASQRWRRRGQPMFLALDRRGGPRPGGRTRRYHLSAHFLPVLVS
rRNA inh HTS: inhibitors of bacterial rRNA selective over humanized ribosomes | GFP signal change (wild-type ribosome), % (concentration not given with the values) | 1.6% of 350,000 active | AID 720706 | E. coli WT GFP vs humanized-ribosome RFP mutants, fluorescence, 24 h; active compounds read low; DMSO median 0, no signal -100;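 active means significant combined selectivity score with lowered wild-type GFP, culture density cut under 30%, mutant RFP and density less affected; inactive means any of these conditions unmet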; further: one replicate is shown; some compounds called inactive have numbers as strong as hits
E coli growth: E. coli growth inhibition; Escherichia coli growth, OD600, 23 h; active compounds read low; OD600 absorbance (concentration not given with the values); 0.21% of 330,000 active; AID 1053175;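 active means OD600 absorbance below the run mean of sample wells minus 3.6 SD, in any replicate, cut at about 0.56 in these data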;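 further: stock transfer was 300 nL into about 60 µL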
B2AR ag: agonists of human beta-2 adrenergic receptor inducing internalization. P07550. Am2.2-beta2AR cells, FAP receptor internalization, flow cytometry; reference of the scale not given here. response, % (no concentration beside the values). 0.43% of 340,000 active. AID 504454;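 active means response above a set limit, near 3 SD of response in nonfluorescent compounds, cut at about 42% in these data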;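 further: stock transfer was 100 nL into about 11 µL; a reference agonist was the positive control; negative values mostly stem from fluorescent compounds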
rRNA inh HTS OD600: second read-out of rRNA inh HTS, no call of its own (marks repeat the call); OD600 change, %; measured here: OD600 growth;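 optical density of the mix in the first replicate; 0 = DMSO median and -100 = no signal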
rRNA inh HTS RFP: second read-out of rRNA inh HTS, no call of its own (marks repeat the call); RFP signal change, %; measured here: RFP humanized mutant strains;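 first replicate; 0 = DMSO median and -100 = no signal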
An asterisk follows results filed as active; i = inactive; u = inconclusive; x = not tested or not shown; & = joins results of further samples. This is a subset; the hit share may differ from the screen's.

SMILES	UCH37 DUB inh	ALR inh	HNF4A DNA FP	FGF22 binding	rRNA inh HTS	rRNA inh HTS OD600	rRNA inh HTS RFP	E coli growth	B2AR ag
COc1ccc(C2=Nn3c(nnc3-c3ccccc3F)SC2)cc1OC1CCCC1	x	-3.5	-0.8	i	-37.0	-58.8	11.9	x	23.9
C=CCN1C=CC(=CC=C(C#N)C#N)C=C1	28.8*	98.6*	118.6	i	104.1	5.5	27.0	0.646	-3.2
O=C(COC(=O)c1cccc([N+](=O)[O-])c1)Nc1ncc(Br)s1	-0.3	x	5.6	i	-4.6	2.1	4.9	0.698	-1.6
CNC[C@H]1Oc2c(NC(=O)C3CCCCC3)cccc2C(=O)N([C@H](C)CO)C[C@@H]1C	4.0	-1.1	-2.8	i	1.8&5.1	6.1&10.9	2.2&1.0	0.777	-2.0
Cn1c(=O)c2cn3c(c2n(C)c1=O)C(c1ccccc1)CC(c1ccccc1)=N3 (stereo not drawn)	-24.8	-0.1	16.5	x	x	x	x	0.721	-5.9
Cc1nc(NS(=O)(=O)c2cccs2)c2c3c(sc2n1)CCC3	-2.2	-3.7	-6.0	x	x	x	x	0.665	6.6
CC(Sc1ccccc1)C(=O)Nc1ccccc1C(=O)N1CCOCC1 (stereo not drawn)	4.7	-8.0	-1.0	x	x	x	x	0.688	-8.9
CCNC(=O)NC(=O)COc1ccccc1C#N	-1.5	x	-3.4	x	x	x	x	0.635	-1.9
CC1CC(C)CN(C(=O)c2ccc(CNc3c(N4CCCC4)c(=O)c3=O)cc2)C1 (stereo not drawn)	1.7	x	-0.2	i	2.3	-2.0	-3.9	0.715	-14.7
CCC1(C)Cc2ccccc2-c2[nH]c(=S)[nH]c(=O)c21 (stereo not drawn)	1.3	-9.3	1.1	i	-14.5	-16.4	-1.7	0.664	-0.8
CCOC(=O)CNC(=O)c1cnc(Nc2ccccc2OC)c2ccccc12	3.0	-7.9	3.7	i	17.7	3.0	-3.2	0.683	-6.6
COc1cc(/C=N/N(C)C)cc(Br)c1O	x	x	1.4	i	2.6	-1.9	-1.3	x	8.2
O=C(COC(=O)c1cc(Cl)ccc1Cl)NC1CCCC1	1.1	x	-3.0	i	3.8	8.3	3.5	0.666	11.2
Cc1cc(O)ccc1NS(=O)(=O)c1ccc2c3c(cccc13)C(=O)N2	2.2	98.9*	-4.0	i	-7.7	-18.1	6.4	0.708	-1.0
O=C1CNC(=O)/C1=C\N1CCN(C(c2ccccc2)c2ccccc2)CC1	3.4	-9.5	2.4	x	x	x	x	0.745	-0.9
CC(=O)Nc1ccc(/C=N\NC(=O)CNS(=O)(=O)c2ccc([N+](=O)[O-])cc2)cc1	x	-18.3	0.2	i	17.3	12.7	-1.0	x	-3.6
CCOc1ccccc1-c1nn2c(Cc3ccccc3)nnc2s1	-12.6	-7.2	1.2	x	x	x	x	0.625	-12.2
O=[N+]([O-])c1ccc(CSc2nc3ccccc3o2)cc1	1.6	-4.9	0.0	x	x	x	x	0.68	-0.3
O=c1cc(-c2ccccc2)oc2cc(O)ccc12	x	x	-0.7	i	5.4	7.0	11.5	x	-15.1
COc1c(O)cc2oc(-c3ccc(O)cc3)cc(=O)c2c1O	1.5	93.9*	-0.5	i	-32.7	-59.5	-4.6	0.63	-0.8
Cc1ccc(NC2CCCN(C(=O)CCN3CCCCO3)C2)cc1C (stereo not drawn)	5.5	98.3*	0.6	i	9.3	1.6	3.0	0.652	-2.1
Cc1cc(C)c2c(NC(=S)NC(=O)c3ccccc3)nn(C)c2n1	2.5	58.7	6.2	i	1.4	11.4	0.7	0.714	-2.0
O=C(c1ccc(N2CCOCC2)nc1)N1CCOCC1	1.7	-14.7	-4.4	i	0.4	-8.1	3.6	0.69	-2.8
COc1ccc(C2NC(C(=O)O)CS2)cc1COCC(F)(F)F (stereo not drawn)	-1.5	2.1	x	x	x	x	x	0.674	x
C#CC(=O)N(c1ccc(OC)cc1OC)C(C(=O)NC1CCCC1)c1cccs1 (stereo not drawn)	7.2	-12.9	-1.1	i	-12.4	-27.9	-5.9	0.677	-401.3
COc1ccc(-c2csc(C(NC(C)=O)c3ccccc3)n2)cn1 (stereo not drawn)	x	x	2.5	i	1.2	6.8	-2.4	x	x
CCC(=O)N(Cc1ccco1)c1nc(-c2ccccc2)cs1	1.7	-5.5	-3.3	x	x	x	x	0.743	-0.3
Cc1cc(C)cc(C(=O)N2CCN(c3ccccn3)CC2)c1	-0.8	6.3	2.4	i	-8.9	-4.4	-4.6	0.709	-7.5
CCOc1cc(CNCCSc2nnnn2C)cc(Br)c1OCc1ccccc1F	5.1	-6.4	2.1	x	x	x	x	0.655	10.9
O=C(c1ccc(-n2c(SCc3cccc(F)c3)nc3ccccc3c2=O)cc1)N1CCOCC1	0.2	-2.3	-4.2	x	x	x	x	0.718	-8.3
O=C(CSc1nnc(-c2cccs2)o1)N1CCOCC1	0.6	x	-1.3	x	x	x	x	0.692	-7.7
CCS(=O)(=O)N1CCC(C(=O)NCc2ccccc2OC)CC1	-0.9	-6.2	-4.7	x	x	x	x	0.687	-0.2
CCOC(=O)C1(Cc2cccc(F)c2)CCN(Cc2cn(CC)nc2C)CC1	0.9	-5.0	3.7	i	6.8	4.7	-0.4	0.671	0.5
COc1cccc(NC(=O)Cn2c(=O)n(-c3ccccc3)c(=O)c3oc4ccccc4c32)c1	x	-6.5	-1.6	x	x	x	x	x	-9.4
Cc1ccc(C)n1-c1ccc(C(=O)NCC2CCCO2)cc1 (stereo not drawn)	-2.2	-6.9	3.9	x	x	x	x	0.671	6.1
COC(=O)c1ccc(C(=O)OC)c(NC(=O)CN(C)Cc2cccc(Cl)c2Cl)c1	-1.5	-11.9	0.7	i	0.8	7.9	1.8	0.682	-6.6

Some of these compounds in order of count of non-hydrogen atoms, low to high.
SMILES	UCH37 DUB inh	ALR inh	HNF4A DNA FP	FGF22 binding	rRNA inh HTS	rRNA inh HTS OD600	rRNA inh HTS RFP	E coli growth	B2AR ag
O=C(CSc1nnc(-c2cccs2)o1)N1CCOCC1	0.6	x	-1.3	x	x	x	x	0.692	-7.7
Cc1ccc(C)n1-c1ccc(C(=O)NCC2CCCO2)cc1 (stereo not drawn)	-2.2	-6.9	3.9	x	x	x	x	0.671	6.1
COc1cccc(NC(=O)Cn2c(=O)n(-c3ccccc3)c(=O)c3oc4ccccc4c32)c1	x	-6.5	-1.6	x	x	x	x	x	-9.4
O=C(c1ccc(-n2c(SCc3cccc(F)c3)nc3ccccc3c2=O)cc1)N1CCOCC1	0.2	-2.3	-4.2	x	x	x	x	0.718	-8.3

Part of the list above, set out differently:
Every second line gives: UCH37 DUB inh, ALR inh, HNF4A DNA FP, FGF22 binding, rRNA inh HTS, rRNA inh HTS OD600, rRNA inh HTS RFP, E coli growth, B2AR ag
- C#CC(=O)N(c1ccc(OC)cc1OC)C(C(=O)NC1CCCC1)c1cccs1 (stereo not drawn)
 : 7.2, -12.9, -1.1, i, -12.4, -27.9, -5.9, 0.677, -401.3
- COc1ccc(-c2csc(C(NC(C)=O)c3ccccc3)n2)cn1 (stereo not drawn)
 : x, x, 2.5, i, 1.2, 6.8, -2.4, x, x

Later entries:
SMILES	UCH37 DUB inh	ALR inh	HNF4A DNA FP	FGF22 binding	rRNA inh HTS	rRNA inh HTS OD600	rRNA inh HTS RFP	E coli growth	B2AR ag
CCCc1ccc(OCc2ccc(C(=O)NCc3cccnc3)o2)c(OC)c1	3.7	-1.3	-2.6	i	-22.1	-27.9	-1.6	0.673	6.3
C/C=C/c1ccc(Oc2nnnn2-c2ccc(C(N)=O)cc2)c(OC)c1	3.4	-2.0	0.2	x	x	x	x	0.753	-2.1
CCCCN1C(=O)C(=O)N(CC(=O)Nc2ccc(OC(F)(F)F)cc2)C1=O	3.2	-3.6	0.5	i	0.7	-20.1	1.2	0.688	-3.1
COc1ccc(NC(=O)/C=C/c2ccc(OC(F)F)cc2)cn1	5.5	x	3.2	i	-5.3	0.8	-2.6	0.648	9.6
COc1ccc(CCNC(=O)C2CCN(Cc3nc(-c4cccc(Cl)c4)oc3C)CC2)cc1OC	-1.1	-16.3	-1.7	x	x	x	x	0.656	4.3
COc1ccccc1CN1CCc2c([nH]c3ccccc23)C1	-2.4	2.3	0.5	i	10.0	8.8	1.1	0.635	-3.0
Cn1c(=O)n(CC(=O)N2CCOCC2)c2ccccc21	3.0	-5.4	-0.2	x	x	x	x	0.683	-2.0
Cc1ccccc1Nc1nc(N)nc(COC(=O)[C@@H](NC(=O)c2ccccc2Cl)C(C)C)n1	-3.8	-1.0	0.0	i	-0.8	-8.4	1.3	0.702	-5.9
CCCOc1ccc(F)cc1-c1cc(C(=O)Nc2ccc(F)c(Cl)c2)[nH]n1	x	x	-1.3	i	-11.9	-20.4	8.7	x	x
CN(Cc1nc(-c2ccccc2)no1)C1CCOCC1	1.2	x	2.0	i	11.7	8.0	-4.6	0.644	0.6
O=S(=O)(NCC(c1cccnc1)N1CCN(c2ccc(F)cc2)CC1)c1cc(F)ccc1F (stereo not drawn)	4.2	x	-0.1	x	x	x	x	0.658	-2.4
Cc1ccc(C2=NS(=O)(=O)N(C)C(C(=O)N3CCCCC3)=C2)cc1	1.1	-8.0	0.4	i	-4.1	-5.7	-0.5	0.693	-12.0
Fc1cccc(Cc2c(-c3cccc(Br)c3)nc3c(Cl)cc(C(F)(F)F)cn23)c1	x	x	2.8	i	5.8	5.6	-5.2	x	x
CCCNC(=O)c1ccccc1NC(=O)C1=CSCCO1	0.2	-0.7	1.1	i	6.2	4.6	1.8	0.672	-3.7
CC(=O)c1cc(C(=O)N2CCCC(C(=O)c3ccc(Cl)cc3)C2)cs1 (stereo not drawn)	0.2	-10.8	2.8	i	-1.8	3.2	1.9	0.724	-0.1
Cc1ccc(C(=O)CSc2nc3ccccc3c(=O)n2-c2ccccc2)s1	0.4	8.7	0.3	x	x	x	x	0.742	-7.8
COCCNC(=O)C1(C)CCCN(Cc2cccc(OC(=O)c3ccccc3)c2)C1 (stereo not drawn)	x	x	-3.5	i	-3.1	0.4	3.0	x	x
Cc1cc(C)nc(SCC(=O)N/N=C/c2cccn2-c2ccc(O)cc2)n1	x	u	-0.9	x	x	x	x	x	-5.1
CCCc1cc(=O)[nH]c(SCC(=O)c2cc(C)n(-c3cc(C)on3)c2C)n1	2.9	26.4	-0.7	i	-9.9	-3.2	4.3	0.694	-3.5
CCOC(=O)N1CCC(NC(=O)CS(=O)Cc2nc(-c3ccc(Cl)cc3)oc2C)CC1 (stereo not drawn)	0.9	98.7*	1.4	i	4.1	5.7	2.9	0.691	-4.7
C[C@H]1CN([C@@H](C)CO)S(=O)(=O)c2ccc(Br)cc2O[C@H]1CN(C)C(=O)NC1CCCCC1	x	x	1.3	i	-0.6&-9.3	-16.1&-7.9	-0.8&0.2	x	x
CCOc1ccc(N2C(=O)CC(Sc3nc(C)cc(C)n3)C2=O)cc1 (stereo not drawn)	0.0	2.9	-0.7	x	-3.5	-2.4	-2.1	0.681	-2.4
O=C(c1nn(Cc2ccccc2)c(=O)c2ccccc12)N1CCN(c2ccccn2)CC1	3.5	-22.2	-0.9	x	x	x	x	0.678	-11.9
COc1ccc(NC(=S)N(CCc2ccc(OC)c(OC)c2)Cc2ccccn2)cc1	5.0	4.3	4.3	i	-3.4	1.3	3.4	0.678	9.1

Screening results from PubChem BioAssay.
